Tgondii IFNg: blocks Toxoplasma gondii growth in the presence of IFN-gamma; Toxoplasma gondii growth in IFN-gamma-treated host cells; stronger effect = lower value; reference of the scale not given here; activity change, negative = inhibition, %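 (about 20 µM by stock and volumes)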; 69,000 tested, 3.8% active; AID 1259416;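 active means below -70%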;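 further: host cells are HeLa cells infected with Toxoplasma gondii; parasite growth read as luciferase light; one replicate is shown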
* hit, by the source's call; i = inactive; & = joins results of further samples. These rows are one share of the data; rates above refer to the full screens.

SMILES,Tgondii IFNg
CCOc1ccc(NC(=O)c2nc(Nc3ccc(C)cc3)c3ccccc3n2)cc1,70.7
O=C(C(Cc1ccccc1)n1cnnn1)N1CCc2cc(Cl)ccc21 (stereo not drawn),4.1
Cc1ccsc1[C@@H]1CCN(C(=O)Cn2c(=O)oc3ccccc32)C[C@H]1O,5.6
COc1ccccc1C(CC(=O)O)c1ccco1 (stereo not drawn),-49.7
CCCCc1nc(Cl)c(CN2CCC(C3(C)NC(=O)NC3=O)CC2)[nH]1 (stereo not drawn),-0.5
O=C(CCc1ccccc1)N1CCCC(c2nnc(-c3ccccn3)o2)C1 (stereo not drawn),29.7
C[C@H]1CN([C@@H](C)CO)C(=O)c2cc(N(C)C)ccc2O[C@H]1CN(C)CC1CCCCC1,5.4
CN(C)CCCN(Cc1ccccn1)Cc1cn[nH]c1-c1ccccc1,1.4
CCC(=O)NCc1ccccc1-c1cc(N)nc2[nH]ccc12,2.6
COCCN1C(=O)CCc2cc(NC(=O)Cc3ccc(OC)cc3Cl)ccc21,72.1
Cc1nc(C(C)NC2CCN(S(C)(=O)=O)CC2)n[nH]1 (stereo not drawn),17.4
Cc1ccc(NCC(O)CN)c(Br)c1 (stereo not drawn),-3.6
CCN1C[C@H]2[C@@H](OC)CCN(C(=O)c3ccc4ccccc4n3)[C@H]2C1,64.5
CC(=O)N1CC2(C1)[C@H](c1ccccc1)[C@H](CO)N2C(=O)Cc1ccccc1,22.2
Cc1ccc(-c2nc(Cn3nnc(-c4nc(-c5cccnc5)no4)c3C)c(C)o2)cc1,-43.8
COc1cccc(CNC(=O)c2c(O)c3ccccc3[nH]c2=O)c1,87.9
CC(C(N)=O)n1cc(-c2ccnc3c2ccn3C)cn1 (stereo not drawn),-10.0
Cc1cc2c3c(c1)c(-c1ccccc1)c(C)n3CCC2,16.0
CSc1nc(C(=O)N2CCCC(Cn3cc(C(C)(C)C)nn3)C2)cs1 (stereo not drawn),-14.4
Cn1nnnc1SCCNC(=O)c1cnn2ccn(C)c12,-1.4
COc1cccc(-c2ccc([C@@H]3[C@@H](CO)N4C(=O)CN(C(=O)c5cccnc5)C[C@@H]34)cc2)c1,-9.5
Cc1nn(C)c2sc(C(=O)NC3CCCCNC3=O)cc12 (stereo not drawn),17.8
CCCN(Cc1nccn1C)c1nc(CCN)nc2ccccc12,22.9
Cc1ccc(Nc2nc(C(=O)Nc3cccc(F)c3)nc3ccccc23)cc1,-27.5
CN(C)CC(=O)N1CCCCN2[C@@H](CO)[C@@H](c3ccc(-c4cncnc4)cc3)[C@@H]2C1,10.1

Entries shown so far that have a Cl atom, in the order listed:
SMILES,Tgondii IFNg
O=C(C(Cc1ccccc1)n1cnnn1)N1CCc2cc(Cl)ccc21 (stereo not drawn),4.1
CCCCc1nc(Cl)c(CN2CCC(C3(C)NC(=O)NC3=O)CC2)[nH]1 (stereo not drawn),-0.5
COCCN1C(=O)CCc2cc(NC(=O)Cc3ccc(OC)cc3Cl)ccc21,72.1

Later entries
SMILES,Tgondii IFNg
CCN(CC)C(=O)c1cc(=O)n(CC(=O)Nc2cc(C)ccc2C)c2ccccc12,1.3
C=CCN(Cc1ccc(F)cc1)Cc1ccc(C(C)=O)cc1,7.6
CC(C)(C)c1ccc(C(=O)NCCc2csc(-c3ccc(F)cc3)n2)cc1,-46.0
O=C(NC1CCCC1)N[C@@H]1C=C[C@@H](CC(=O)N2CCOCC2)O[C@@H]1CO,2.7
Cn1cc(-c2nc(C3CCN(S(C)(=O)=O)CC3)cc3c2ncn3C)cn1,148.2
O=C(Nc1ccccc1)N1CC(C(=O)N2CCOCC2)C2(CCOCC2)C1 (stereo not drawn),5.2
O=C(CSCCS(=O)(=O)c1ccc(Cl)cc1)Nc1ccc(F)c(Cl)c1,-56.0
CCOCC1c2c(cnn2C)CCN1C(=O)COc1ccccc1 (stereo not drawn),0.2
CN1CCN(c2ccc(CNS(=O)(=O)Cc3ccc(Cl)cc3)cc2)CC1,-58.9
COc1cccc(NC(=O)N2[C@@H](CO)[C@@H](c3ccccc3)[C@@H]2CNCC(C)C)c1,5.8
CCC(=O)OCC(=O)[C@@]1(OC(=O)CC)[C@@H](C)CC2C3CCC4=CC(=O)C=C[C@]4(C)C3(F)[C@@H](O)C[C@@]21C (stereo partly drawn),-20.3
CN1CCN(Cc2cnn(C)c2C2CC2)CC12CCN(C(=O)C1CC1)CC2,-50.3
O=C1CCc2cc(S(=O)(=O)N3CCN(C(=O)C45CC6CC(CC(C6)C4)C5)CC3)cc3c2N1CC3,-27.8
COc1cc(NC(=O)Nc2ccc(-c3nc(-c4cc(C)ccc4C)co3)cc2)cc(OC)c1,-62.0
Cc1ccc(-c2csc(-c3cccn3CC(=O)N3CCC(N4CCCCC4)CC3)n2)cc1,-14.6
COCC(=O)Nc1ccc2c(c1)CCC(=O)N2,0.0
CCc1ccc(S(=O)(=O)N2CCC3(CC3C(=O)NCc3ccncc3)C2)cc1 (stereo not drawn),-8.3
Cn1c(N)c(Sc2nnnn2-c2ccccc2)c(=O)[nH]c1=O,-17.9
COc1ccc(NC(=O)N(C)C[C@@H]2OCc3cnnn3CCCC(=O)N([C@@H](C)CO)C[C@@H]2C)c(OC)c1,i
COc1ccc(NC(=O)N2CCC(c3nc(C(=O)N4CCOCC4)c(C)o3)CC2)c(C)c1,17.4
COc1ccc(Br)cc1-c1nc(Cn2ccn3nc(-c4ccc5c(c4)OCO5)cc3c2=O)c(C)o1,100.2
COc1ccc(S(=O)(=O)N(C)C[C@H]2OCCCC[C@@H](C)Oc3ccc(NC(=O)Cc4ccccc4)cc3C(=O)N([C@@H](C)CO)C[C@@H]2C)cc1,-68.7
O=C(NC1CCCCCC1)C1CC(=O)N(CCc2c[nH]c3ccc(F)cc23)C1 (stereo not drawn),-39.1
O=C(CC1NC(=O)N(C2CCCCC2)C1=O)Nc1ccccc1CN1CCCCC1 (stereo not drawn),-13.6
O=C(COc1ccccc1)NCCc1csc(-c2cccc(F)c2)n1,-28.2
C=CCC1(CC=C)CCN1C(=O)c1cc(=O)c2cc(C)c(C)cc2o1,2.7
CCS(=O)(=O)NCC[C@@H]1CC[C@@H](NS(=O)(=O)c2ccccc2C)[C@H](CO)O1,-20.1
c1ccc2ncc(-c3nccs3)cc2c1,101.0
O=C(c1ccc(F)cc1)N1CCC2(CC(Oc3cccnc3)CO2)C1 (stereo not drawn),4.4
COc1ccc(NC(=O)Nc2ccc(-c3nc(-c4ccc(C)cc4)co3)cc2)cc1OC,39.2
Nc1ccccc1OCC1CCCCO1 (stereo not drawn),-38.5
COc1cccc(-n2c(=O)c(C(=O)Nc3ccccc3C)c(O)c3cccnc32)c1,-1.5
COC(=O)c1cc(NC(=O)CSc2nnc(CN3CCOCC3)n2C)ccc1Cl,-20.8
CCOCC1c2c(cnn2CC2CC2)CCN1C(=O)Cc1ccccc1 (stereo not drawn),39.0
O=C(c1cn[nH]c1-c1ccccc1F)N1CCC2(CCCO2)CC1,-1.7
Cc1cc(C(F)F)n2nc(C(=O)Nc3cc(Cl)ccc3O)nc2n1,-34.8
Cc1ccnc(NCCn2cc(C3CC=CCC3)nn2)c1 (stereo not drawn),6.2
c1ccc(C2CCN(CCn3ccnc3C3CC3)C2)cc1 (stereo not drawn),-16.5
CC(c1ccc2c(c1)OCCO2)N(C)C(=O)c1cc2n(n1)CCCN(C)C2 (stereo not drawn),4.9
Cc1c(O)nc2sc3ccccc3n2c1=O,11.4
COc1ccc(-c2cc(C(=O)O)[nH]n2)cc1,-30.4
COCCCN1C(=O)CCc2c(C)nc(CN(C)C(=O)c3c(C)oc4c3CCCC4)nc21,9.0
O=C(Nc1cccc2ccccc12)c1cnccn1,53.7
Cc1cccnc1CN1CCN(Cc2cc3n(n2)CCNC3)CC1,9.1
CC(C)CN1C(=O)CCc2cc(NS(=O)(=O)c3ccccc3F)ccc21,-58.6
Cn1cnc(S(=O)(=O)N2CCCC(N)CC2)c1 (stereo not drawn),-1.3
C[C@H]1[C@@H](O)O[C@@H]2O[C@@]3(C)CC[C@H]4[C@H](C)CC[C@@H]1[C@@]24OO3,-94.3*
CC(C)NC(=O)CC1Nc2c3ccccc3nc(=S)n2C1=O (stereo not drawn),4.4
Cn1ncc(-c2nc(-c3ccc(Cl)cc3)cs2)c1N,-83.2*
O=C(NC1C=CS(=O)(=O)C1)c1csc(Cc2ccccc2)n1 (stereo not drawn),-10.0

By substructure, the entries above with a COOH group (2)
SMILES,Tgondii IFNg
COc1ccccc1C(CC(=O)O)c1ccco1 (stereo not drawn),-49.7
COc1ccc(-c2cc(C(=O)O)[nH]n2)cc1,-30.4

New compounds follow:
SMILES | Tgondii IFNg
Cc1ccc(-c2coc(-c3ccc(NC(=O)C(C)C)cc3)n2)cc1 | 4.9
CC(C)CN1C[C@@H]2CCN(C(=O)c3ccnnc3)CC[C@H]2S1(=O)=O | 1.7
CCOC(=O)[C@]12CCCN(S(=O)(=O)CC)C[C@@H]1CN(CCN(C)C)C2 | -2.6
Cc1oc(C2CCN(C(=O)Nc3cccc(C(F)(F)F)c3)CC2)nc1C(=O)N(C)C | 24.1
COc1cc(/C=C/c2ccccc2)ccc1NC(C)=O | 116.9
O=C(c1ccc(O)cn1)N1C[C@@H]2C3CCC(CC3)[C@@H]2C1 | 12.0
CC1=C(C(=O)NCC(C)c2ccccc2)C2(CCN(S(C)(=O)=O)CC2)OC1=O (stereo not drawn) | 40.2
COc1ccc(C)cc1-c1ccc(C(N)=O)cn1 | 9.5
O=C(Cn1c(=O)ccc2cc(S(=O)(=O)N3CCCC3)ccc21)Nc1ccc(F)cc1 | -41.6
COC(=O)c1ccc(NC(=O)N2CCCCC2CCn2ccnc2)cc1 (stereo not drawn) | 3.1
CCc1cnc(C)nc1N1CCN(Cc2ccn(C(C)C)c2)CC1 | -8.5
CCOC(=O)CC1C(=O)NCCN1C(=O)OC(C)(C)C (stereo not drawn) | 25.9

Four of the compounds above, as labelled records:
CC(C)CN1C[C@@H]2CCN(C(=O)c3ccnnc3)CC[C@H]2S1(=O)=O
  Tgondii IFNg: 1.7

CCOC(=O)[C@]12CCCN(S(=O)(=O)CC)C[C@@H]1CN(CCN(C)C)C2
  Tgondii IFNg: -2.6

Cc1oc(C2CCN(C(=O)Nc3cccc(C(F)(F)F)c3)CC2)nc1C(=O)N(C)C
  Tgondii IFNg: 24.1

COc1cc(/C=C/c2ccccc2)ccc1NC(C)=O
  Tgondii IFNg: 116.9

Later entries
SMILES | Tgondii IFNg
Cc1ccc2c(c1)cc(CNCc1ccccc1)c1nnnn12 | 178.0
CCc1ccc(Nc2nc(C(=O)NCCOC)nc3ccccc23)cc1 | -54.0
COc1ccc2c3c(n(C)c2c1)[C@H](CO)N(C(=O)Nc1ccc(F)cc1)CC31CCN(S(=O)(=O)c2cccc(C)c2)CC1 | -74.1*
Cc1cnc(NC(=O)c2nccnc2C(=O)O)c(C)n1 | 25.7
C[C@H](CO)N1C[C@H](C)[C@H](CN(C)S(=O)(=O)c2cccs2)Oc2ccc(NC(=O)CCCCCC(=O)Nc3ccccc3N)cc2CC1=O | 1.5
C/C=C/c1ccc2c(c1)[C@@H]1[C@@H](CCN1S(=O)(=O)c1ccccc1OC)[C@H](CO)N2C | -22.8
Cc1cc2ncn(C(=O)c3c(-c4ccccc4Cl)noc3C)c2cc1C | 18.3
Cc1nc(C23CC4CC(CC(C4)C2)C3)[nH]c(=O)c1Cl | -27.3
O=C(c1ccc(F)cc1)N1CC[C@H]2[C@@H]1CCN2CC1CC1 | 1.6
Cc1ccc2c(c1C)-n1cccc1C1(CCN(C(=O)Cc3ccccc3Cl)CC1)N2 | 213.3
Cc1ccccc1NC(=O)N1C[C@@H]2C[C@H](C(=O)N3CCOCC3)[C@@H](C1)O2 | -0.1
O=c1[nH]c2ccccc2c(O)c1-c1nc(-c2ccccc2Cl)no1 | 33.2
CC1=C(C(=O)NCCCN2CCCCC2C)C2(CCN(S(=O)(=O)c3cccs3)CC2)OC1=O (stereo not drawn) | -22.6
COc1ccc2c3c(n(C)c2c1)[C@H](CO)NCC31CN(CC2CCOCC2)C1 | 192.1
O=C(Cc1cccnc1)N1CC(=O)N2[C@H](C1)[C@H](c1ccc(C#CC3CCCCC3)cc1)[C@@H]2CO | -35.2
CN(C)C(=O)c1cccc(-c2ccc(C3[C@@H]4CN(Cc5cocn5)C[C@H]3N4)cc2)c1 (stereo partly drawn) | -37.8
COc1ccc(-c2ccc3n(c2=O)C[C@@H]2[C@@H](CO)[C@H](C(=O)N(C)C)[C@H]3N2Cc2cncnc2)cc1 | -7.3
CCOc1cc2c(cc1CN(CCN1CCOCC1)Cc1cccnc1)OC(C)C2 (stereo not drawn) | 8.5
CCCN1CCCN(c2ccnc(C(=O)NCc3ccncc3)c2)CC1 | 2.8
O=C(Nc1ccccc1)N1C[C@H]2CC[C@@]3(N=C(c4ccccc4)NC3=O)[C@@H]2C1 | 8.3
O=C(Cn1ncc2ccccc2c1=O)N1CC[C@@H](c2ccccc2)[C@H](O)C1 | -3.8
COc1ccccc1N1CCN(CCCCN2C(=O)CCC2=O)CC1 | 10.2&19.3
COc1ccc(CCNS(=O)(=O)c2cc3c4c(c2)CCN4C(=O)CC3)cc1OC | 25.2
COCCNC(=O)c1nn(CCC(C)C)c2c1CN(C(=O)c1[nH]c3c(C)cc(C)cc3c1C)CC2 | -34.5
CN(C)C(=O)c1cc(-c2cnc(-c3ccnn3C)nc2)cn1C | -14.4
CCOc1ccc(C2c3[nH]c4ccccc4c3CCN2C(=O)c2ccc(OC)c(OC)c2)cc1 (stereo not drawn) | i
COC(=O)Nc1ccc(-c2nc(N3CCOCC3)c3cnn(C4CCN(C(=O)OC)CC4)c3n2)cc1 | 8.5
COc1ccc2c3c([nH]c2c1)[C@H](CO)N(C(=O)CN(C)C)CC31CN(C(=O)c2cccnc2)C1 | 19.2

Bioassay records from PubChem.
